nsP2pro primary: CHIKV nsP2 protease inhibition, primary qHTS. Q8JUX6. FRET peptide cleavage, nsP2pro, fluorescence 1 h. Potency, µM (doses to about 24.9 µM), inactives show at the highest dose activity change, negative = inhibition, usual class: inhibitors. 31,000 compounds, 1.1% hits. AID 1964107; active means well fitted inhibition curve with a large enough effect; inconclusive means small, poorly fitted or top-dose-only effect; inactive means no such curve, though single readings can be large or run the other way; note: nearly all actives have a fitted effect of over 60% in size; a reference inhibitor and vehicle were the controls
Target sequence (Q8JUX6 whole entry, looked up): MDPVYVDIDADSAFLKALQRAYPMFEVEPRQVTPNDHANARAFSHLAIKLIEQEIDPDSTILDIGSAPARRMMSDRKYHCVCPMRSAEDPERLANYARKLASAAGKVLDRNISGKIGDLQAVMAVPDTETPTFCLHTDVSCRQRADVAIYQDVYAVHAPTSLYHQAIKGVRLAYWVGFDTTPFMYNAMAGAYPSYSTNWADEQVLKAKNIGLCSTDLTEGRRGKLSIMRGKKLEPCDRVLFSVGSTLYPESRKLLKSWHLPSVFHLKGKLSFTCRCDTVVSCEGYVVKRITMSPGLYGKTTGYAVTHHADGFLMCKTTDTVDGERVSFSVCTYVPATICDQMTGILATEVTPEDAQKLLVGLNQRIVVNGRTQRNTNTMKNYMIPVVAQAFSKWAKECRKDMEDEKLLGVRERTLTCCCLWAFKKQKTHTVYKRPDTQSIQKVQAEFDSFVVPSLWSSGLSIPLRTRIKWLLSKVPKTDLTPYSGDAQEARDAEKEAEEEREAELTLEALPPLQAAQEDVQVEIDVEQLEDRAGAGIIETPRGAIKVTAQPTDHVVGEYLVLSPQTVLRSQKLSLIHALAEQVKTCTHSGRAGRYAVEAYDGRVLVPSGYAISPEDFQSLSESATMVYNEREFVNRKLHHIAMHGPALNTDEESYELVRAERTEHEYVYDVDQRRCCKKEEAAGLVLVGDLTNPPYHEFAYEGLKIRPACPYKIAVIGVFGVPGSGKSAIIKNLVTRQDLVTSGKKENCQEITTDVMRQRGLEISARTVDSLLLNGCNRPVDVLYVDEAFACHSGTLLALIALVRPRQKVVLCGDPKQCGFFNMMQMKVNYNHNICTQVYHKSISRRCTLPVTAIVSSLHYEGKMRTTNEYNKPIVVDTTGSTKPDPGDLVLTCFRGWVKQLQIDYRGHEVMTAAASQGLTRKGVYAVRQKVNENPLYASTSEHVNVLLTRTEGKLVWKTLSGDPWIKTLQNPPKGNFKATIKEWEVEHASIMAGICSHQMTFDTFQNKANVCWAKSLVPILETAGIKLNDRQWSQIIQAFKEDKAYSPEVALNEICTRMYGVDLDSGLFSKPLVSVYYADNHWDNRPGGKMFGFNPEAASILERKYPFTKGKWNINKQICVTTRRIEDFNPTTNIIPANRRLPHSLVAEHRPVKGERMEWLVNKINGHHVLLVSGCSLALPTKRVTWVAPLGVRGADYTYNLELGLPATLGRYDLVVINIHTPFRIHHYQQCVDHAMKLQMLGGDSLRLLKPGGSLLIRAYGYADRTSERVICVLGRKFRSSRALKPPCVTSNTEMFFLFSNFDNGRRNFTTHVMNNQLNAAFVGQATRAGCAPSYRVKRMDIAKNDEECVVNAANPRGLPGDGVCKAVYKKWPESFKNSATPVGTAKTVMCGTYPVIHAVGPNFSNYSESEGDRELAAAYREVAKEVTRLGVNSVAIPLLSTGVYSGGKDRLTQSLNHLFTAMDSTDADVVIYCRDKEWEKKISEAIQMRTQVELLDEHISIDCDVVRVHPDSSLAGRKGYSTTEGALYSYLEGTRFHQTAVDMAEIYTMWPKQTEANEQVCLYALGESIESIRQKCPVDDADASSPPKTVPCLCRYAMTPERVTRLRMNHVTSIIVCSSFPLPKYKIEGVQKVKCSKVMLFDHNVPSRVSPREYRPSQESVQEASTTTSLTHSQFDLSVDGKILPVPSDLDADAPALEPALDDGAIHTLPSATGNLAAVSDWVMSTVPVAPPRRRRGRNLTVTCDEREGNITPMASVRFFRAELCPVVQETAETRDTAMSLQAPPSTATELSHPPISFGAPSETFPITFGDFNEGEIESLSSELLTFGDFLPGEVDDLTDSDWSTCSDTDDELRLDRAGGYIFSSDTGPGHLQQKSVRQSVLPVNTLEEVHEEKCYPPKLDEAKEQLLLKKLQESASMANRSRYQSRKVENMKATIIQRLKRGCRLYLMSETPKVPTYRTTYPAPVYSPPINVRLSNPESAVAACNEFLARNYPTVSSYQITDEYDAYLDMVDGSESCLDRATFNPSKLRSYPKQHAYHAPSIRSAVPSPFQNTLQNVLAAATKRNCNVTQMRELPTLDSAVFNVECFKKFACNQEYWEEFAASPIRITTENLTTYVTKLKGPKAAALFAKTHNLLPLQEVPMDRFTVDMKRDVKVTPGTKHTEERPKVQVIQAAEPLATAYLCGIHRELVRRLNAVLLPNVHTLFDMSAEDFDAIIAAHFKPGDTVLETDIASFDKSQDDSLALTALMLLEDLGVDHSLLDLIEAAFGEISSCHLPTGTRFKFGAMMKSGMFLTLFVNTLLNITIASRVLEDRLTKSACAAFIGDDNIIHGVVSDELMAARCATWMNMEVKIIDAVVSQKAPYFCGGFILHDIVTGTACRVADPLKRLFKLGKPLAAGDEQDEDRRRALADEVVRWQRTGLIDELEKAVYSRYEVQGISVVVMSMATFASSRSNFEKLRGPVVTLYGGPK
* marks the source's active call; other numbers are inactive results; i = inactive; u = inconclusive; & = joins results of further samples; [ ] = remark or other dose. % is set by controls: 0 for no effect and ±100 for the full control effect; potency is the fitted concentration of half-maximal effect. Some of the compounds tested (hit frequency here may not be typical).

no. | SMILES | nsP2pro primary
1 | O=C(O)c1ccc(O)c2ncc(NC3CCNC3)cc12 (stereo not drawn) | -0.5%
2 | Cc1ccc(CNC(=O)CCCCn2c(=O)c3ccccc3n(Cc3c(C)cc(C)cc3C)c2=O)cc1 | -14.8%
3 | OC1(Cn2ccnc2)CCN(Cc2ccccc2Cn2cccn2)CC1 | i
4 | CC(C)(C)c1cc(C(=O)NCc2cccnc2)nn2cccc12 | -4.2%
5 | COc1cccc(-c2cc(C(=O)N3CCC(Cn4cccn4)CC3)[nH]n2)c1 | 2.0%
6 | COc1ccc(S(=O)(=O)NCCc2nnc3ccc(SCC(=O)Nc4cc(C)cc(C)c4)nn23)cc1 | -7.9%
7 | CSc1ccc(C2C(C(=O)Nc3ccccc3)=C(C)Nc3nc4ccccc4n32)cc1 (stereo not drawn) | 2.5%
8 | COc1ccc(-c2ccc3nc(-c4cc(F)cc(F)c4)oc3c2)c(OC)c1OC | 5.2%
9 | N#Cc1c(-c2ccc(F)c(Br)c2)no[n+]1[O-] | i
10 | CCOc1ccccc1CN1CCC[C@H]1C(=O)N1CCCCCCNC(=O)CC1 | -20.6%
11 | O=C1NC(=NC2CCCCC2)C2(CCCN([S+](=O)([O-])c3cccc(C(F)(F)F)c3)C2)N1c1cc(F)cc(F)c1 (stereo not drawn) | -7.5%
12 | O=C(Nc1cc(-c2ccc(F)c(F)c2)no1)c1ccccc1F | -19.4%
13 | O=C(NCCn1cc(SCc2cccc(F)c2)c2ccccc21)c1cccc(C(F)(F)F)c1 | -15.5%
14 | C#C[C@]1(O)CC[C@@H]2[C@@H]3CCC4=CCCC[C@@H]4[C@H]3C(=C)C[C@@]21CC | 26.7%
15 | NS(=O)(=O)c1ccc(N2N=C(c3ccccc3)CC2c2ccccc2)cc1 (stereo not drawn) | 12.2%
16 | CC(=O)N1CCN(c2ccc(NS(=O)(=O)c3ccc4c(c3)CC(=O)N4)cc2)CC1 | i
17 | COc1ccccc1NC(=O)c1sc2nc(-c3cc4ccccc4oc3=O)[nH]c(=O)c2c1C | -18.8%
18 | COc1c(C(O)CC(C)C)ccc2c1C(=O)OCc1cc(C)cc(O)c1O2 (stereo not drawn) | 4.4%
19 | Cn1ccnc1-c1ccc(N2CCCC(CO)(CCOc3ccccc3)C2)nn1 (stereo not drawn) | i
20 | COc1ccc(NC(=O)CCS(=O)(=O)c2nc(-c3cccs3)cc(C(F)(F)F)n2)cc1 | 41.0%[activator]
21 | Cc1cccc(-c2cn[nH]c2C2CCN(C(=O)c3cc(=O)[nH]c(=O)[nH]3)CC2)c1 | i
22 | Cc1ccc(NC(=O)Cn2c(=O)n(-c3ccc(CC(=O)NCC4CCCO4)cc3)c(=O)c3ccccc32)cc1 (stereo not drawn) | -9.6%
23 | O=[S+]([O-])(Nc1ccccc1)c1ccc2c(c1)OCCN(Cc1nccs1)C2 | 1.0%[39.2 µM]
24 | COc1cccc(-c2nc(CS(=O)(=O)CC(=O)NCc3ccc(C)cc3)c(C)o2)c1 | -17.7%
25 | O=C(COc1ccccc1)N[C@H]1CO[C@H]2[C@@H]1OC[C@@H]2n1nnnc1Oc1ccc2c(c1)OCO2 | -9.5%

Molecules listed so far with an aryl thioether with sulfur outside any ring (3):
no. | SMILES | nsP2pro primary
6 | COc1ccc(S(=O)(=O)NCCc2nnc3ccc(SCC(=O)Nc4cc(C)cc(C)c4)nn23)cc1 | -7.9%
7 | CSc1ccc(C2C(C(=O)Nc3ccccc3)=C(C)Nc3nc4ccccc4n32)cc1 (stereo not drawn) | 2.5%
13 | O=C(NCCn1cc(SCc2cccc(F)c2)c2ccccc21)c1cccc(C(F)(F)F)c1 | -15.5%

(listing goes on)
no. | SMILES | nsP2pro primary
26 | O=c1ncn(CC2CC2)c2ccc(N3CCC(c4ccccc4)CC3)nc12 | -16.8%[39.2 µM]
27 | COc1cccc(S(=O)(=O)N2CCC(c3noc(-c4ccccn4)n3)C2)c1 (stereo not drawn) | -3.3%
28 | CCOC(=O)c1ccc(-c2ccc(OC(=O)N(C)Cc3cccc(-c4ccncc4)c3)cc2)cc1 | u
29 | CCCCc1ccc(O)cc1O | -5.6%
30 | Cc1nc2c(C(=O)N(C)Cc3ccccc3)c[nH]n2c(=O)c1Cc1ccc(Cl)cc1 | -11.0%
31 | CCc1cccc(C)c1Nc1c(-c2cccs2)nc2nc(C)cc(C)n12 | -13.5%
32 | COc1ccc(CCNC(=O)c2cnn(-c3cccc(C)c3)c2C2CCNCC2)cc1OC | u
33 | O=S(=O)(O)c1ccc(O)cc1 | 7.2%
34 | CSCC(=O)NCCC[C@H](NC(=O)[C@@H]1[C@@H](NC(=O)NC2CCCCC2)CCN1C(=O)CSC)C(N)=O | i
35 | C#CCCC(=O)Nc1sc2c(c1-c1nc3ccccc3s1)CCN(C(C)C)C2 | i
36 | O=C(NCc1ccccc1Cl)c1c2c(nc3ccccc13)C(=O)N(C1CCCCC1)C2 | -15.4%
37 | COC(=O)[C@H](CC1CCCCC1)NC(=O)[C@@H]1C[C@@H](NC(=O)Nc2cccc(F)c2)CCN1C(=O)CCC(=O)O | -2.8%
38 | O=C1CC(c2ccc(C(F)(F)F)cc2)c2c(c3ccccc3oc2=O)O1 (stereo not drawn) | -24.2%
39 | Cc1ccc(C)c(CSc2nnc3[nH]c(=O)cc(-c4ccccc4)n23)c1 | -6.4%
40 | Cc1cccc(-n2c(/C=C/c3c[nH]c4ccccc34)nc3ccccc3c2=O)c1 | 0.3%
41 | Cc1ccc(-c2ncccn2)c(C(=O)N2C[C@H](COc3ccc(F)cn3)CC[C@H]2C)c1 | 1.6%
42 | COc1ccc(C(=O)NCC2(N3CCN(C)CC3)CCCCC2)cc1 | u
43 | COc1ccc2c(c1)C=C1Cn3c-2c(C2CCCCC2)c2ccc(cc23)C(=O)NS(=O)(=O)N(C)CCOCCN(C)C1=O | 124.0%[activator]
44 | Cc1ccc(S(=O)(=O)Nc2cccn3nc(C4CCC4)nc23)cc1 | -4.9%
45 | NC(=O)[C@H]1O[C@@H](O)[C@H](O)[C@@H](O)[C@@H]1O | -4.1%[78.4 µM]
46 | Nc1c(-c2nc(-c3ccncc3)no2)nnn1CC(=O)Nc1ccccc1 | -8.7%
47 | CCn1ncc(CN2CCCCCNC(=O)[C@@H]3CCC[C@@H]32)c1C | i
48 | O=C1[C@@H]2C[C@@H](CN2Cc2ccc3c(c2)OCO3)Oc2ccccc2N1CC1CC1 | -3.3%[39.2 µM]
49 | Cc1c(P(=S)(c2ccccc2)c2ccccc2)c2ccccc2n1C(=O)NCc1ccccc1 | -6.9%
50 | CCc1cc(=O)n(CC(=O)N2CCN(c3ccccc3OC)CC2)c(-c2ccccc2)n1 | i

Some of the entries so far, field by field:
(36) O=C(NCc1ccccc1Cl)c1c2c(nc3ccccc13)C(=O)N(C1CCCCC1)C2
  nsP2pro primary = -15.4%
(37) COC(=O)[C@H](CC1CCCCC1)NC(=O)[C@@H]1C[C@@H](NC(=O)Nc2cccc(F)c2)CCN1C(=O)CCC(=O)O
  nsP2pro primary = -2.8%

The results go on:
no. | SMILES | nsP2pro primary
51 | O=C(NCCc1nc2ccccc2n1CCOc1cc(F)ccc1F)C1CCCCC1 | 3.6%
52 | Cc1cccc(-c2noc([C@@H]3Cc4nc[nH]c4CN3C(=O)NC3CCCCC3)n2)c1 | 0.631µM*
53 | COc1ccc(OC)c(NC(=O)Nc2c(C)n(C)n(-c3ccccc3)c2=O)c1 | -9.6%
54 | COc1ccc(Cl)cc1NC(=O)c1cnc2sc(N3CCOCC3)nn2c1=O | 3.3%
55 | CCOC(=O)c1[nH]c(C)c(CCC(=O)Nc2ccc(Br)c(C)c2)c1C | -10.2%
56 | CC1=C(/C=C/C(C)=C/C=C/C(C)=C/C(=O)Nc2ccc(O)cc2)C(C)(C)CCC1 | -0.2%
57 | CC(C)=CCN1Cc2ccccc2NC(=O)C12CCNC2 (stereo not drawn) | 10µM*
58 | Cc1cc(N2CCCCC2)nc2ccc(NC(=O)/C=C/c3ccccc3OC(C)C)cc12 | -5.0%
59 | COc1ccc(-c2noc(CSc3nc(C)cc(=O)[nH]3)n2)cc1OC | -7.8%
60 | CC(C)c1ccccc1-c1nccc(NCc2ccc(-c3cccnc3)cc2)n1 | i
61 | CCc1ccc(CNC(=O)CN2C(=O)NC3(CCOCC3)C2=O)cc1 | -10.5%
62 | O=S(=O)(c1ccc2[nH]c3c(c2c1)CCCC3)N1CCN(c2cccc(C(F)(F)F)c2)CC1 | -11.5%
63 | O=C(/C=C/c1ccc2c(c1)OCO2)Nc1cccc([S+](=O)([O-])Nc2ccccc2F)c1 | -6.0%&-8.6%
64 | C[C@@H]1CC[C@]2(C(=O)O[C@@H]3O[C@H](CO)[C@@H](O)[C@H](O)[C@H]3O)CC[C@]3(C)C(=CCC4[C@@]5(C)C[C@@H](O)[C@H](O)C(C)(C)C5CC[C@]43C)C2[C@]1(C)O (stereo partly drawn) | -0.7%[10 µM]
65 | O=C(Nc1cccc(-c2ccc(N3CCOCC3)nn2)c1)Nc1ccc(F)cc1F | i
66 | CC(=O)NCCc1c[nH]c2ccc(O)cc12 | u
67 | Cc1ccc(C)c(S(=O)(=O)c2nnn3c2nc(NCc2cccs2)c2sccc23)c1 | -26.3%
68 | CCN(CC)CC#CCOC(=O)C(O)(c1ccccc1)C1CCCCC1 (stereo not drawn) | -3.0%
69 | CCCCn1c(=O)n(Cc2ccccc2F)c(=O)c2[nH]c(Cc3ccc(NC(C)=O)cc3)nc21 | -11.5%
70 | Cc1ccc(NC(=O)Nc2nnc(SCC(=O)N3CCC(C)CC3)s2)cc1 | -20.2%
71 | O=C(c1csc(-c2cccs2)n1)N1CCCC1c1nc2ccccc2[nH]1 (stereo not drawn) | -2.0%
72 | CCn1cc(CN2CC(Oc3ccc(-c4noc(-c5cccnc5)n4)cc3)C2)cn1 | i
73 | CCOc1cccc(NC(=O)CSc2ncc(-c3ccc(Cl)cc3)[nH]2)c1 | u
74 | CCOc1ccc(CCNC(=O)C2=C(C)C(=O)OC23CCC(C)CC3)cc1OCC (stereo not drawn) | -4.2%
75 | CCOc1ccccc1NC(=O)C(NS(=O)(=O)c1ccc2c(c1)CCC(=O)N2)c1ccccc1 (stereo not drawn) | -13.5%

(next part)
no. | SMILES | nsP2pro primary
76 | C=CCNc1oc(-c2cccnc2)nc1C#N | 1.1%
77 | CC(C)=CCC/C(C)=C/CC/C(C)=C/CO | -22.3%
78 | O=C1CCCC2=C1C(c1cccc(Cl)c1)N=C(Nc1nc3ccccc3o1)N2 (stereo not drawn) | -0.5%
79 | Cc1cn(-c2cc(NC(=O)c3ccc(C)c(Nc4nccc(-c5cnccn5)n4)c3)cc(C(F)(F)F)c2)cn1 | 19.5%
80 | O=C1OC(c2ccc(O)cc2)(c2ccc(O)cc2)c2ccccc21 | 16.7%
81 | O=c1[nH]c(SCc2c(F)cccc2Cl)nc2c1CCC2 | -21.2%
82 | O=C(CCS(=O)(=O)c1nc(-c2cccs2)cc(C(F)(F)F)n1)Nc1cc(Br)ccc1O | -26.6%
83 | CCc1ccc(CNC(=O)c2ccc3c(Cl)c4c(nc3c2)CCCC4)cc1 | 2.3%
84 | CCOc1ccc(CCNC(=O)c2cn(-c3ccc(OC)cc3)c(=O)c3ccccc23)cc1OCC | -21.2%
85 | O=[N+]([O-])c1ccccc1S(=O)(=O)Nc1cccc2cccnc12 | i
86 | CCOc1ccc(NC(=O)COc2ccc(S(=O)(=O)NC3CCCCC3)cc2)cc1 | -15.7%
87 | FC(F)(F)CN1C2CCC1CN(c1nnc(Cl)c3ccccc13)C2 | -6.5%
88 | COc1ccccc1CC(=O)N1CCC2(CC1)N=C(c1ccc(C)cc1)NO2 | -3.2%
89 | CCCS(=O)(=O)NCC1Cn2cccc2C(=O)N1CCOC (stereo not drawn) | -13.4%
90 | CCCc1ccc(OC(C)c2nc(-c3ccc(-n4cccc4)cc3)no2)cc1 (stereo not drawn) | -19.2%
91 | COc1ccc(-c2nc3ccc(Cl)cc3c(=O)n2Cc2ccccc2)cc1COc1ccc(NC(C)=O)cc1 | -11.3%
92 | COc1ccc(-c2ccn(CC[C@](C)(C(=O)NO)S(C)(=O)=O)c(=O)c2)c(F)c1 | -4.2%
93 | Cc1nc(N)ncc1-c1nc(N2CCOCC2)c2sc(C(C)(C)O)cc2n1 | 28.7%
94 | Cn1c(COc2cccc(CN3CCCC3)c2Cl)nnc1C1CC(N)C1 (stereo not drawn) | i
95 | O=[S+]([O-])(c1c(F)cccc1F)N1CCN([S+](=O)([O-])c2cccc3nonc23)CC1 | -9.2%
96 | Cc1cc(-c2nn(-c3ccccc3F)cc2CN(C)C(C)c2ccon2)c(C)s1 (stereo not drawn) | i
97 | O=S1(=O)N=C(Oc2cccc(C(F)(F)F)c2)c2ccccc21 | i
98 | c1ccc(-c2noc(CC3CCOC4(CCN(Cc5cccnc5)CC4)C3)n2)cc1 (stereo not drawn) | i
99 | CCc1noc([C@@H]2CC(F)(F)CN2C(=O)c2ccn(CC)n2)n1 | i
100 | CCc1nc2c(=O)n(CC(=O)NC(C)c3ccc(F)cc3)nc(C)c2s1 (stereo not drawn) | i

Remaining list, next part.
no. | SMILES | nsP2pro primary
101 | O=C(c1ccco1)n1nc(-c2ccccc2)nc1NCc1ccc(Cl)cc1 | -14.4%
102 | COCC(=O)NC1CCC12CCN(C(=O)c1ccc3ccccc3n1)CC2 (stereo not drawn) | 0.7%
103 | CC(C)c1ccccc1-c1nc(NCc2ccc(-c3cccnc3)cc2)c2sccc2n1 | 1.1%
104 | C[C@H](O)[C@H](O)/C=C/c1cccc(O)c1CO | -9.0%
105 | O=C(Cc1ccc(F)cc1)N1CCC(c2nc3c(nnn3Cc3ccc(F)cc3)c(=O)[nH]2)CC1 | -7.9%
106 | CCN1CCN(C(=O)c2ccc3nc(-c4cccc(C)n4)oc3c2)CC1 | 4.3%[39.2 µM]
107 | CCOC(=O)c1c(NC(=O)CS(=O)(=O)c2ccc(C)cc2)sc2c1CCC(C)C2 (stereo not drawn) | -24.0%
108 | CNC(=O)C1(N2CCC[C@H]2C(=O)NCCNC(C)=O)CCCCC1 | 0.6%[39.2 µM]
109 | COc1ccc(OCC2CN(CC3CC3)[S+](=O)([O-])c3cnccc3O2)cc1 (stereo not drawn) | -3.6%[10 µM]
